Source: PubChem BioAssay
HCMV UL50-53 inh = inhibitors of HCMV UL50-UL53 interaction, biochemical, HTRF | 190,000 tested, 0.15% active | normalized percent inhibition | HCMV UL50-UL53 nuclear egress complex (human cytomegalovirus) | inhibition, % (no concentration beside the values);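 active = both replicates at 50% or more, plus weaker picks with an unusually low signal ratio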;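 note: stock transfer was 100 nL into about 20 µL; 0% = negative control wells and 100% = wells with untagged competitor protein; inactives centre near -12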
GIV-Gai inh = inhibitors of GIV peptide binding to Galpha-i3, primary screen, biochemical, fluorescence polarization, FITC-GIV GBA peptide, rat Galphai3; Guanine nucleotide-binding protein G(i) subunit alpha-3 (Rattus norvegicus), P08753; 90 min; stronger effect = lower value; scaled: aluminum fluoride 0%, vehicle 100%; percent of control (FP), % (no concentration beside the values); 210,000 tested, 0.42% active;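 active = replicate mean at 85% of control or lower, very high polarization wells dropped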;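 note: wells of about 15 µL received 100 nL stock; the first replicate is given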
Target sequence (P08753 whole entry, looked up): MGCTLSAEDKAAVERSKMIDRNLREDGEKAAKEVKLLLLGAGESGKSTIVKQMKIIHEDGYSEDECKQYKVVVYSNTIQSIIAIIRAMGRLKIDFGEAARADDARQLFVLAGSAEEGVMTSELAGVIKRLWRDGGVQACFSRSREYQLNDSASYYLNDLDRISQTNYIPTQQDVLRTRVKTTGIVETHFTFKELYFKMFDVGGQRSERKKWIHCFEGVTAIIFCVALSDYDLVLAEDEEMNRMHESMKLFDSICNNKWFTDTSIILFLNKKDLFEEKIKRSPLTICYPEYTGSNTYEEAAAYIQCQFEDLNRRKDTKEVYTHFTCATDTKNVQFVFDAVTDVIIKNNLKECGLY
Sa growth inh = S. aureus growth inhibition at 42 and 30 °C, primary screen, LtaS inhibitor project, RN4220, two temperatures | OD600, 20 h, 42 °C; stronger effect = lower value | relative growth, % (no concentration beside the values) | 170,000 tested, 0.53% active | AID 720641, 2013;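 active = growth at 42 °C up to 50% and 20 or more points under that at 30 °C, or under 10% at both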;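 note: 300 nL library stock went into each well; scaled to the means of positive and negative controls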
Sa growth inh second temp = recorded beside Sa growth inh, whose call it bears; relative growth, %; measured here: growth at 30 °C;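 optical density after 20 h as mean of two plates; 100% = untreated growth and lower means inhibition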
* = called active by the depositor; / = no result given; & = joins results of further samples.

SMILES | HCMV UL50-53 inh | GIV-Gai inh | Sa growth inh | Sa growth inh second temp
CC(c1nnc(SCC(=O)N2CC(=O)Nc3ccccc32)n1Cc1ccccc1)N(C)C (stereo unspecified) | -3 | / | 95 | 96
CCOC(=O)c1cc(C)n(CC2CCC(C(=O)Nc3ccc(OC)cc3)CC2)c1C (stereo unspecified) | 2 | 103&102 | 113 | 90
COc1ccc(N2C(=O)CCS2(=O)=O)cc1S(=O)(=O)N1CCOCC1 | 5 | 99 | / | /
O=C1CC(c2ccccc2)CC(=O)C1=CN1CCCC1 (stereo unspecified) | 4 | / | 88 | 91
O=C(CSc1ccc(Cl)cc1)Nc1cscc1S(=O)(=O)c1ccc(Cl)cc1 | -13 | 108 | 102 | 86
Cc1ccc(NC(=O)c2ccc(CSc3ccccn3)cc2)c(C)c1 | 5 | / | 107 | 89
N#Cc1ncoc1-c1ccccc1Cl | -4 | 103 | 102 | 66
C=CCN1C(=O)N(c2cccc(C)c2)C(=O)C1CC(=O)Nc1cc(OC)cc(OC)c1 (stereo unspecified) | -18 | 105 | 92 | 82
CCOc1ccc(C2C3=C(CC(c4ccccc4)CC3=O)Nc3onc(C)c32)cc1 (stereo unspecified) | -1 | 101 | / | /
CCc1ccc2c(c1)c(=O)c(S(=O)(=O)c1ccccc1)cn2CC(=O)Nc1cc(C)ccc1C | -32 | 106 | 102 | 85
Cc1ccc(C)c(N(C)C(=O)CCS(=O)(=O)c2cccc3nonc23)c1 | / | 95 | 125 | 89
O=S(=O)(Nc1cccc(F)c1)c1ccc2[nH]c3c(c2c1)CCCCC3 | / | 104 | 129 | 91
CCC(CC)c1nn2c(=O)cc(COc3ccc(NC(=O)c4ccc(Cl)cc4)cc3)nc2s1 | -45 | 102 | 99 | 88
CCOC(=O)CNS(=O)(=O)c1cc(-c2nnc(Nc3ccc(Br)cc3)c3ccccc23)ccc1C | 8 | 111 | / | /
COc1cccc2c1NC(c1cccc3ccccc13)C1CC=CC21 (stereo unspecified) | -9 | 109 | / | /
COCc1c(C(=O)N2CCN(S(=O)(=O)c3cccs3)CC2)oc2ccccc12 | -23 | / | 74 | 90
CCCN(c1nc(C)c(Br)c(OC)n1)S(=O)(=O)c1ccc(C)cc1 | -5 | 106 | / | /
Cc1ccccc1CN1CCc2nc(N3CCN(c4ccccn4)CC3)ncc2C1 | / | 102 | 103 | 91
CSCCC1C(C#N)=C(N)Oc2n[nH]c(-c3cccs3)c21 (stereo unspecified) | -30 | 91 | 70 | 54
Cc1ccc(C)c(NC(=O)C2Nc3cc(C)ccc3S(=O)(=O)N2)c1 (stereo unspecified) | -23 | 102 | / | /
c1ccc(CSc2nn3cnnc3s2)cc1 | / | 100 | 92 | 86
CN(CC1CCCO1)S(=O)(=O)c1ccc(C(=O)Nc2sccc2C(N)=O)cc1 (stereo unspecified) | -29 | 105 | 101 | 67
COc1cc2[nH]c(=O)n(CCC(=O)N3CCN(c4cccc(C(F)(F)F)c4)CC3)c(=O)c2cc1OC | -24 | 99 | 95 | 86
CC1=C2C(N)=C(C(=O)Nc3ccccc3)SC2NC(C(F)(F)F)=C1 (stereo unspecified) | 2 | 121 | 105 | 103
Cc1nn(C)c(C)c1NC(=S)Nc1ccc(S(=O)(=O)Nc2ncccn2)cc1 | -12 | 102 | 109 | 99

The list continues.
SMILES | HCMV UL50-53 inh | GIV-Gai inh | Sa growth inh | Sa growth inh second temp
Cc1nc(CC(=O)NN)cs1 | -4 | / | 114 | 86
CCCc1ccc(-c2nc(CS(=O)(=O)C(C)(C)C)no2)cc1 | 2 | 101 | 100 | 89
Cc1ccc(-c2ocnc2C(=O)Nc2ccccc2NC(=O)c2ccccn2)cc1 | -4 | 102 | 90 | 80
Cc1ccc2nc(NC(C)c3ccccc3)c3nnnn3c2c1 (stereo unspecified) | -16 | 99 | / | /
Cc1nc(SCC(=O)Nc2ccc(C)c(Cl)c2)cc(-c2ccccc2)n1 | -7 | 100 | 105 | 92
COc1cccc(-c2cn3c(n2)sc2cc(C(=O)NCc4ccccc4F)ccc23)c1 | / | 114 | 110 | 86
N#CCCn1cc(/C=N/NC(=O)C23CC4CC(CC(C4)C2)C3)c(-c2ccccc2)n1 | -14 | / | 88 | 91
Cc1cc(C(=O)COC(=O)C2COc3ccccc3O2)c(C)n1-c1cccc(S(=O)(=O)N2CCOCC2)c1 (stereo unspecified) | -16 | / | 100 | 90
O=C(c1ccccc1)c1cnc2ccc(F)cc2c1S(=O)(=O)c1ccc(F)cc1 | -3 | 96 | / | /
Cc1onc(-c2ccccc2)c1C(=O)NNc1ccc(C(C)(C)C)cc1 | -25 | 106 | 84 | 90
COc1ccc(C2=C(C)C(=O)N(CC(=O)NC3CCCC3)S2(=O)=O)cc1 | -37 | 99 | / | /
O=C(O)CCc1n[nH]c2c1CCCC2 | 14 | 102 | 73 | 86
O=C(c1cc2n(n1)CCCN(Cc1ccccc1)C2=O)N1CCCCCC1 | -22 | 108 | 94 | 86
CCCn1c(-c2ccc(S(=O)(=O)N3CCOCC3)cc2)csc1=Nc1ccccc1 | / | 93 | 101 | 88
O=C(CCC(=O)Nc1nc(-c2cc3ccccc3oc2=O)cs1)NCc1ccco1 | -11 | 102 | 120 | 96
Cc1ccnc(-n2c(C)c(C)c3c2ncn2nc(C(C)N4C(=O)c5ccccc5C4=O)nc32)c1 (stereo unspecified) | -18 | 106 | / | /
CN1C(C/C(=N\NC(N)=O)c2ccccc2)CCCC1CC(O)c1ccccc1 (stereo unspecified) | -2 | / | 94 | 94
Cc1cc2c(cc1C)CSC(c1ccccc1)SC2 | -5 | 104 | 98 | 90
COCC(C)NC(N)=O (stereo unspecified) | -27 | / | 102 | 95
O=C(Nc1ccc2ccccc2n1)c1cc(Cl)sc1Cl | -19 | 100 | 95 | 87
COc1ccc(NC(=O)C(C)NC(=O)c2ccco2)cc1NS(=O)(=O)c1ccc(F)cc1 (stereo unspecified) | -1 | / | 86 | 93
O=C(CSc1nc2ccccc2o1)N1N=CCC1c1ccccc1 (stereo unspecified) | -20 | 111 | 114 | 107
O=C(C1CC1)N1N=C(C2CCCCC2)CC1(O)C(F)(F)F (stereo unspecified) | / | 100 | 103 | 76
COc1ccc(OC)c(CNC(=O)NCc2noc3ccc(C)cc23)c1 | / | 111 | 104 | 87
CCCCn1c(CCNC(=O)c2ccc(F)cc2)nc2ccccc21 | -4 | 107 | 92 | 86

Other results follow.
SMILES | HCMV UL50-53 inh | GIV-Gai inh | Sa growth inh | Sa growth inh second temp
CC(=O)NCc1ccccc1S(=O)c1ccccc1C(=O)O (stereo unspecified) | -5 | 98 | 100 | 97
CC(NS(=O)(=O)c1ccc(Cl)cc1)C(=O)O (stereo unspecified) | -2 | / | 96 | 96
CSc1ccccc1C(=O)Nc1cccc(C(C)O)c1 (stereo unspecified) | -11 | / | 106 | 80
CN(CCOc1ccc(Cl)cc1)CN1C(=O)C2CC=CCC2C1=O (stereo unspecified) | -41 | / | 98 | 101
COc1cccc(NC(=O)CSc2nnc(-c3cccs3)o2)c1 | 0 | 95 | 94 | 94
COc1ccc(SCC(=O)NCc2ccc3c(c2)OCO3)cc1 | -11 | 103 | 94 | 85
O=C(N/N=C/c1ccc(O)cc1)c1ccccc1 | -39 | 102 | 103 | 85
CCc1ccnc(NC(=O)c2ccccc2)c1 | -10 | 102 | 88 | 77
COC(=O)/C(=C\Nc1ccc(Sc2ccc(Cl)cc2)nc1)NC(=O)c1ccccc1 | -4 | 96 | 94 | 84
COc1ccc(OC)c(NC(=O)CCN2CCC(C)CC2)c1 | -30 | 99 | 93 | 85
CC1O[C@]2(C)OC1[C@]1(C)OC(C)[C@H]2O1 (stereo partly specified) | -14 | 108 | 101 | 96
Cn1nc(C(=O)NCc2ccccc2)c2c1CCN(C(=O)c1ccccc1Cl)C2 | -28 | 104 | / | /
Cc1cc(=O)n2c(-c3ccccc3)csc2n1 | -27 | 103 | / | /
CCC/C(O)=C1/C(=O)CC(c2ccccc2)CC1=NC(C)C(=O)O (stereo unspecified) | -2 | / | 94 | 97
Cc1ccccc1C(=O)OC(C)CN1CCCCC1 (stereo unspecified) | -21 | 103 | 105 | 90
Cc1cc(C)c(S(=O)(=O)Nc2ccc3oc(C)c(C(=O)OC(C)C)c3c2)cc1C | 6 | 104 | 92 | 85
CCOC(=O)c1ccc(NC(=O)c2cnn(-c3ccc(C)cc3C)c2C2CCN(C(=O)OC(C)(C)C)CC2)cc1 | / | 107 | 96 | 88
O=C(N/N=C/c1ccc(N2CCOCC2)cc1)c1cccs1 | -63 | / | 108 | 104
Fc1ccc(-c2cc3c(N4CCN(c5ccccc5F)CC4)nccn3n2)cc1 | -16 | 101 | / | /
Cc1ccc2c(CSCc3cc(=O)n4c(C)csc4n3)cc(=O)oc2c1 | -16 | / | 103 | 90
CC1(C(=O)NC2CCCC2)Cn2c(cc3ccccc32)C(=O)N1c1ccc2c(c1)OCCO2 (stereo unspecified) | 12 | 96 | / | /
Cn1c(=O)cc(SCC(=O)NCc2ccc(F)cc2)c2cc(Cl)ccc21 | 24 | 102 | 108 | 89
Cn1c2ccc(F)cc2c2n[nH]c(=S)nc21 | -66 | 104 | 90 | 84
CCOc1ccc(C(=O)c2cn(CC(=O)Nc3ccc(C)c(C)c3)c3ccc(OCC)cc3c2=O)cc1 | -10 | 107 | 103 | 90
CC(NS(=O)(=O)c1ccc(C(C)(C)C)cc1)C1C2CC3CC(C2)CC1C3 (stereo unspecified) | / | 100 | 108 | 91

Other entries.
SMILES | HCMV UL50-53 inh | GIV-Gai inh | Sa growth inh | Sa growth inh second temp
CCc1ccc(NC(=O)N2CCC(N(C)C(C)C)CC2)cc1 | / | 97 | 99 | 88
O=C(CCN1C(=O)/C(=C/c2ccc3c(c2)OCO3)SC1=S)Nc1nc(-c2ccccc2)cs1 | -37 | 107 | / | /
COc1ccc(CN(C(=O)Nc2cccc(Cl)c2)c2ccccn2)cc1OC | -2 | 110 | 86 | 83
O=C(NCc1ccco1)c1ccc(COCC(F)(F)F)cc1 | / | 104 | 98 | 84
CCC(=O)N1c2ccccc2CC1C(=O)NCCc1ccccc1OC (stereo unspecified) | / | 102 | 107 | 96
O=C(O)C1CC=CCC1C(=O)NCc1cccnc1 (stereo unspecified) | -2 | / | 118 | 91
COc1ccc(NC(=S)N(Cc2c(C)noc2C)c2ccccc2)cc1 | -14 | / | 93 | 87
CN(Cc1ccccc1)C(=O)c1cc(=O)nc2sc(N3CCCCC3)nn12 | 1 | 97 | / | /
COC(=O)c1ccc(C2c3c(oc4ccc(C)cc4c3=O)C(=O)N2Cc2ccc3c(c2)OCO3)cc1 (stereo unspecified) | -5 | 101 | 88 | 93
Cc1ccc(-n2c(=O)c3oc4ccccc4c3n(CC(=O)Nc3ccccc3)c2=O)cc1C | / | 97 | 124 | 88
C=CCn1cc(C=C2C(=O)OC3(CCCC3)OC2=O)c2ccccc21 | / | 106 | 99 | 95
CCCCCCn1nnc2sc(-c3ccccc3)cc2c1=O | -4 | 126 | 93 | 87
CN(C/C(O)=C(\C#N)c1nc2ccccc2s1)C1CCCCC1 | -4 | 101 | 94 | 97
CC(C)(C)CNC(=S)NN | -24 | 106 | 84 | 75
Cc1ccc(Cn2cc[nH]c(=O)c2=O)cc1 | -32 | 99 | 100 | 87
FC(F)(F)c1cccc(N=C=S)c1 | -18 | / | -1.3* | -0.5*
COc1ccc(Cl)cc1NC(=O)CCCN1C(=O)C(c2ccccc2)Oc2cccnc21 (stereo unspecified) | / | 106 | 121 | 109

Entries above that have a Cl atom, in the order listed:
SMILES | HCMV UL50-53 inh | GIV-Gai inh | Sa growth inh | Sa growth inh second temp
O=C(CSc1ccc(Cl)cc1)Nc1cscc1S(=O)(=O)c1ccc(Cl)cc1 | -13 | 108 | 102 | 86
N#Cc1ncoc1-c1ccccc1Cl | -4 | 103 | 102 | 66
CCC(CC)c1nn2c(=O)cc(COc3ccc(NC(=O)c4ccc(Cl)cc4)cc3)nc2s1 | -45 | 102 | 99 | 88
Cc1nc(SCC(=O)Nc2ccc(C)c(Cl)c2)cc(-c2ccccc2)n1 | -7 | 100 | 105 | 92
O=C(Nc1ccc2ccccc2n1)c1cc(Cl)sc1Cl | -19 | 100 | 95 | 87
CC(NS(=O)(=O)c1ccc(Cl)cc1)C(=O)O (stereo unspecified) | -2 | / | 96 | 96
CN(CCOc1ccc(Cl)cc1)CN1C(=O)C2CC=CCC2C1=O (stereo unspecified) | -41 | / | 98 | 101
COC(=O)/C(=C\Nc1ccc(Sc2ccc(Cl)cc2)nc1)NC(=O)c1ccccc1 | -4 | 96 | 94 | 84
Cn1nc(C(=O)NCc2ccccc2)c2c1CCN(C(=O)c1ccccc1Cl)C2 | -28 | 104 | / | /
Cn1c(=O)cc(SCC(=O)NCc2ccc(F)cc2)c2cc(Cl)ccc21 | 24 | 102 | 108 | 89
COc1ccc(CN(C(=O)Nc2cccc(Cl)c2)c2ccccn2)cc1OC | -2 | 110 | 86 | 83
COc1ccc(Cl)cc1NC(=O)CCCN1C(=O)C(c2ccccc2)Oc2cccnc21 (stereo unspecified) | / | 106 | 121 | 109
